Lassa entry inh = qHTS for Inhibitors of binding or entry into cells for Lassa Virus; 300,000 compounds, 1.2% hits; Potency, µM (highest dose often 37.9 µM), for the others: at the top dose activity change, negative = inhibition, actives largely listed as inhibitors; Lassa virus pseudotype entry inhibition, cell reporter; control for the full effect not named in the record; active means well fitted inhibition curve with a large enough effect; inconclusive means small, poorly fitted or top-dose-only effect, or effect the other way; inactive means flat fitted curve, though single readings scatter; tested in HEK293 cells; note: % is set by controls: 0 for no effect and ±100 for the full control effect; nearly all actives have a fitted effect of over 50% in size; luciferase read-out
Marburg entry inh = qHTS for inhibitors of binding or entry into cells for Marburg Virus; Marburg virus pseudotyped entry inhibition, cell reporter; control for the full effect not named in the record; about a third of the inactives were read at about 46 µM; Potency, µM (titrated, usually from 37.8 µM), for inactives: top-dose activity change, negative = inhibition, most hits filed as inhibitors; 300,000 compounds, 1.8% hits; active = well fitted inhibition curve with a large enough effect; inconclusive = small, poorly fitted or top-dose-only effect, or effect the other way; inactive = flat fitted curve, though single readings scatter; tested in HEK293 cells; about a fifth of its hits are not listed in these tables; note: % is set by controls: 0 for no effect and ±100 for the full control effect; luciferase read-out
Cruzain inh noDet = qHTS Assay for Promiscuous and Specific Inhibitors of Cruzain (without detergent); Cruzipain (Trypanosoma cruzi), P25779; purified cruzain, Z-FR-AMC fluorescence, no detergent; Potency, µM, inactives show max response, negative = inhibition, most hits filed as inhibitors; 200,000 compounds, 2.3% hits; AID 1476, 2009;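 note: plate controls were enzyme without inhibitor for no effect and buffer without enzyme for full effect; nearly all actives have a fitted effect of over 40% in size; top concentration of the series not given in the record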
Target sequence (P25779 123-467 limits assumed): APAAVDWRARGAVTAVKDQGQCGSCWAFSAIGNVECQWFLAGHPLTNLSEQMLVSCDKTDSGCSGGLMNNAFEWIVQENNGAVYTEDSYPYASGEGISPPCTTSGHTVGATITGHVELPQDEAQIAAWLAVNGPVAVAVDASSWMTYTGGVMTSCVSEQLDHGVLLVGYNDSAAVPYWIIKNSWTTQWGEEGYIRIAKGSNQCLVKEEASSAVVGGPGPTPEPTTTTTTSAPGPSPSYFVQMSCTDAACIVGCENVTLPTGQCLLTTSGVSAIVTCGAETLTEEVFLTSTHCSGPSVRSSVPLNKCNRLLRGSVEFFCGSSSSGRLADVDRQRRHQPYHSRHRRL
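Purified cruzain at 1.5 nM, pre-incubated 15 min with compound at room temperature in 100 mM sodium acetate pH 5.5, 5 mM DTT, 0.00005% Triton X-100. Reaction started with 2 uM Z-FR-AMC; AMC fluorescence increase over 60 s gives rate.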
NS1 inh = qHTS Assay for Inhibitors of Influenza NS1 Protein Function; S. cerevisiae slowed by influenza A NS1, growth recovery by OD600; 270,000 compounds, 0.4% hits; AID 2326, 2010; Potency, µM (titrated, usually from 46.1 µM), without a hit: top-dose activity, positive = more growth; active means well fitted rising curve with a large enough effect; inconclusive means small, poorly fitted or top-dose-only effect; inactive means no such curve, though single readings can be large or run the other way; note: nearly all actives have a fitted effect of over 50% in size
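Read-out: OD600 growth recovery of NS1-expressing budding yeast. Cells grown overnight at 30C in -URA glucose medium, washed, resuspended and diluted 1:100 in 2% galactose assay medium, pH 6.0. Same strain lacking NS1 served as positive control.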
SARS PLpro yeast = qHTS of Yeast-based Assay for SARS-CoV PLP; S. cerevisiae expressing SARS-CoV PLpro, growth rescue; control for the full effect not named in the record; Potency, µM (titrated, usually from 32.9 µM), for inactives: top-dose activity, positive = growth rescue; 330,000 compounds, 0.19% hits; AID 485353, 2010; active means well fitted rising curve with a large enough effect; inconclusive means small, poorly fitted or top-dose-only effect; inactive means no such curve, though single readings can be large or run the other way; note: 0% is about no effect; nearly all actives have a fitted effect of over 55% in size; growth read by luminescence after 48 h
Cruzain inh Det = qHTS Assay for Promiscuous and Specific Inhibitors of Cruzain (with detergent); Potency, µM, for the others: max response, negative = inhibition, usual class: inhibitors; 200,000 compounds, 0.43% hits; purified cruzain, Z-FR-AMC fluorescence, 0.01% Triton; Cruzipain (Trypanosoma cruzi), P25779;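 note: plate controls were neutral wells for no effect and buffer without enzyme for full effect; nearly all actives have a fitted effect of over 40% in size; top concentration of the series not given in the record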
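Read-out: AMC fluorescence (360 nm excitation, 450 nm emission), four reads over 2 min, first-to-third difference used. Conditions: cruzain 1.5 nM, Z-FR-AMC 2 uM, pH 5.5 acetate, 5 mM DTT, 0.01% Triton X-100.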
RE007 growth inh = qHTS Assay for Inhibitors of the HIV-1 protein Vpr | S. pombe RE007 Vpr strain, BacTiter-Glo ATP luminescence, 24 h; control for the full effect not named in the record | 360,000 compounds, 0.21% hits | AID 651644, 2012 | Potency, µM (top dose mostly 92.2 µM), for inactives: top-dose activity change, negative = less growth; active = well fitted falling curve with a large enough effect; inconclusive = small, poorly fitted or top-dose-only effect; inactive = no such curve, though single readings can be large or run the other way;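 note: % is set by controls: 0 for no effect and ±100 for the full control effect; nearly all actives have a fitted effect of over 50% in size; the assay follows cell death caused by Vpr and the record does not say whether a fall means rescue or toxicity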
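Fission yeast strain RE007, carrying one chromosomally integrated HIV-1 vpr copy, was seeded at OD 0.01 in PMG+AL medium with 23 nL pinned compound. After 24 h at 30 °C and 99% humidity, viability was read by BacTiter-Glo luminescence.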
StopGo reporter = High Throughput Screening for Foot and Mouth Disease Virus Antivirals. Potency, µM (series often up to 57.9 µM), for inactives: top-dose signal change, negative = less light. 410,000 compounds, 1.2% hits. AID 1159524, 2015. human cells with a luciferase reporter of 2A StopGo recoding; control for the full effect not named in the record; active = well fitted falling curve with a large enough effect; inconclusive = small, poorly fitted or top-dose-only effect; inactive = no such curve, though single readings can be large or run the other way; tested in HEK293T cells; note: % is set by controls: 0 for no effect and ±100 for the full control effect; nearly all actives have a fitted effect of over 45% in size; luciferase light after 4 h
* hit, by the source's call; ? = inconclusive; · = no result given; & = joins results of further samples; [ ] = remark or other dose. Unless noted, calls come from the whole dose curve; as a rule, active = well fitted curve in the direction sought with a large enough effect; inconclusive = small, poorly fitted or top-dose-only effect, or another doubt; inactive = no such curve, though single readings can be large; an effect the other way counts as inactive or inconclusive. Potency is the fitted concentration of half-maximal effect.

The line under a structure holds: Lassa entry inh | Marburg entry inh | Cruzain inh noDet | NS1 inh | SARS PLpro yeast | Cruzain inh Det | RE007 growth inh | StopGo reporter
1: O=S1(=O)C=CC(Sc2nc3ccccc3[nH]2)C1 (stereo unspecified)
 : 18% | 3%[46.1 µM] | -10% | 1% | 19% | 6.5% | -1% | 1%
2: CCC(C)c1c(O)nc(SCC(=O)N2CCCCCC2)[nH]c1=O (stereo unspecified)
 : ? | -4%[46.1 µM] | · | 6% | 0% | · | 4% | -3%
3: COc1cc2c(cc1OC)C(C)N(C(=O)Cc1ccc(C(F)(F)F)cc1)CC2 (stereo unspecified)
 : · | · | · | 0% | -2% | · | 2% | ?
4: O=C(COc1ccccc1/C=C1\SC(=O)NC1=O)Nc1ccc(F)cc1
 : -5% | ? | · | -5% | -1% | · | -2% | -20%
5: COc1ccc(CC(=O)N/N=C/c2ccc(-c3cccc(C(=O)O)c3)o2)cc1OC
 : · | · | · | 8% | 0% | · | 1% | 2%
6: Cn1c(CO)c(-c2ccccc2)c2cc([N+](=O)[O-])ccc21
 : 3% | 0% | -3% | -4% | -9% | -1.0% | -19% | -10%
7: Cc1c(Cl)c([N+](=O)[O-])nn1CC(=O)NCc1ccc(Cl)cc1
 : · | · | · | 10% | 13% | · | -3% | -5%
8: C/C(=N\NC(=O)c1ccncc1)c1ccc(NC(=O)c2ccc(Cl)cc2)cc1
 : · | · | · | 9% | -1% | · | -11% | 15%
9: C=C(C)CSc1nnc(-c2ccccc2)n1N
 : 39% | ? | -8% | -7% | · | -3.1% | 2% | 63%[activator]
10: C#CCOc1c(Cl)cc(/C=C2/C(=O)ON=C2C)cc1OCC
 : · | · | · | 9% | -2% | · | -5% | -15%
11: Fc1ccccc1N1CCN(Cc2cccnc2)CC1
 : 5% | 7% | 2% | 2% | -1% | -1.4% | 2% | -5%
12: O=C1C(c2ccc(F)cc2)N(Cc2ccc3c(c2)OCO3)C(=O)CN1C1CCCCC1 (stereo unspecified)
 : ? | -19% | 4% | -13% | 8% | 0.8% | -3% | 24%
13: COc1cccc(C(c2sc3nc(-c4ccco4)nn3c2O)N2CCN(c3ccccc3F)CC2)c1 (stereo unspecified)
 : 6%[46.1 µM] | · | 13% | · | · | -8.1% | · | 10%
14: CCOc1ccc(Cl)cc1S(=O)(=O)N1CCC(C(=O)NCc2ccco2)CC1
 : -11%[46.1 µM] | 0%[46.1 µM] | · | -15% | -3% | · | -4% | 37%[activator]
15: Cc1ccc(OCCCn2c(CCNC(=O)C3CCCCC3)nc3ccccc32)c(C)c1
 : 1%[46.1 µM] | 3%[46.1 µM] | -3% | · | · | 2.5µM* | · | -6%
16: Cc1cc(N/N=C/c2ccc(O)cc2)nc(NS(=O)(=O)c2ccccc2)n1
 : -2% | -1% | 17% | 9% | -3% | -8.1% | 2% | ?
17: CN(C)CCCNC(=S)/N=c1\sccn1Cc1ccccc1Cl
 : ? | ? | · | 10% | -2% | · | -16% | -5%
18: Cc1ccccc1Cn1ccc(NC(=O)c2cnn3cccnc23)n1
 : -3% | 19% | 4% | -16% | -6% | 0.8% | 26% | ·
19: CN1CCN(/N=C/c2c(O)n(CCC3=CCCCC3)c(=S)[nH]c2=O)CC1
 : ? | -9% | · | -1% | 4% | · | 1% | -23%
20: Cc1ccccc1NC(=S)NC(=O)CCc1ccccc1
 : -7% | 2% | 1% | -16% | 16% | -5.3% | -25% | 5%
21: CC(C)C(O)(C#CCN1CCCCCC1)c1ccccc1 (stereo unspecified)
 : -3% | -16%[46.1 µM] | · | 3% | -2% | · | 0% | -19%
22: Cc1ccc(C)c(Nc2nnc(-n3nc(C)cc3C)c3ccccc23)c1
 : -7%[46.1 µM] | 5%[46.1 µM] | -6% | · | · | -1.9% | · | -12%
23: O=C(Nc1cccc(-c2cn3cccnc3n2)c1)c1ccc2c(c1)OCO2
 : 10% | -3% | 13% | -9% | 0% | -12% | ? | 7%
24: CC(=O)N1CCc2c(sc3c2c(=O)n(-c2ccccc2)c(=O)n3CC(=O)c2ccc(F)cc2)C1
 : · | -9%[46.1 µM] | -2% | · | · | -0.3% | · | -15%
25: CC(C)[C@H]1C(=O)N2CCC[C@H]2[C@]2(O)O[C@](NC(=O)[C@@H]3C=C4c5cccc6[nH]cc(c56)C[C@H]4N(C)C3)(C(C)C)C(=O)N12
 : -11% | ? | 9% | ? | -2% | 1.6% | ? | -9%
26: O=C(/C=C/Nc1ccc(S(=O)(=O)Nc2ncccn2)cc1)c1cccs1
 : -12% | 16%[46.1 µM] | · | 5% | 0% | · | 5% | 12%
27: CCOc1ccc(/C=N/NC(=O)CN2CCSCC2)cc1
 : 29% | ? | -2% | -15% | 8% | -1.6% | -3% | -2%
28: COc1ccc(C(=O)/C=C(/C)N(C)C)cc1
 : 10% | ? | -6% | 6% | -26% | 1.4% | -1% | 2%
29: COc1cc(OC)c(OC)cc1CN1CCN(C(=O)COc2ccc3ccccc3c2)CC1
 : -19% | ? | · | -8% | 1% | · | 10% | ?
30: Cc1ccc(C)c(N2CCN(S(=O)(=O)c3ccc(C(=O)N(C)C)s3)CC2)c1
 : ? | · | ? | · | · | -5.8% | · | -5%

(continued)
The line under a structure holds: Lassa entry inh | Marburg entry inh | Cruzain inh noDet | NS1 inh | SARS PLpro yeast | Cruzain inh Det | RE007 growth inh | StopGo reporter
31: Cc1ccc2nc(NC(=O)CNS(=O)(=O)c3ccc(Br)s3)sc2c1
 : 5% | -5%&2% | 12% | -9% | 1% | -3.7% | 11% | 2%
32: Cc1ccccc1Cn1cc(NC(=O)c2cc(-c3ccc(Cl)cc3)on2)cn1
 : -18%[46.1 µM] | ? | 6% | · | · | -1.4% | · | -6%
33: Cc1ccc2c(=O)cc(C(=O)Nc3ccc(S(=O)(=O)N(C)Cc4ccccc4)cc3)oc2c1
 : 20%[46.1 µM] | -24%[46.1 µM] | 10% | · | · | -0.9% | · | -26%
34: CCOCCCNC(=O)C(NC(=O)c1ccccc1O)c1ccc(C)cc1 (stereo unspecified)
 : -20% | ? | · | · | 0% | · | -1% | 30%
35: CNC(=O)c1cccc(NC(=O)C(C)c2ccc3cc(OC)ccc3c2)c1 (stereo unspecified)
 : -15% | ? | · | 5% | -4% | · | 17% | -14%
36: COc1ccc(C(=O)Nc2cc([N+](=O)[O-])ccc2N2CCCC2)cc1
 : 5% | 22%[46.1 µM] | · | · | 0% | · | -6% | -7%
37: COC(=O)CCC(=O)OC1(C)C(=O)C2=CN(C3CCCC3)C(c3ccc(OC)cc3)=CC2=C(Br)C1=O (stereo unspecified)
 : · | · | · | ? | 4% | · | -13% | 17%
38: Cc1ccc(S(=O)(=O)N/N=C/c2ccc(C(=O)O)cc2)cc1
 : ? | -2% | -2% | 3% | 0% | -2.1% | 4% | 29%
39: Cc1cc(C)c(CN2CCC(n3nccc3NC(=O)CCOc3ccccc3)CC2)cc1C
 : · | · | · | -12% | 0% | · | -7% | ?
40: CC(NC(=O)COC(=O)C1CCN(S(=O)(=O)c2ccccc2C(F)(F)F)CC1)c1ccccc1 (stereo unspecified)
 : ? | 17% | ? | -28% | -26% | -4.5% | -18% | -27%
41: O=C1CN(C(=O)COC(=O)CCSc2ccccc2Cl)c2ccccc2N1
 : 0% | 22% | 20% | 0% | 10% | -18% | 4% | -1%
42: O=C1C=C(c2ccccc2)CCC1
 : · | 12%&12%[14.2 µM] | 7% | -2% | 5% | -3.2% | -4% | -4%
43: Cc1ccccc1NC(=O)N1c2ccccc2CC1C (stereo unspecified)
 : -5% | 5% | · | -5% | -1% | · | -4% | 12%
44: CC1CCC(NC(=O)CCNS(=O)(=O)c2ccc3c(c2)CCC(=O)N3)CC1 (stereo unspecified)
 : · | · | · | 6% | 3% | · | 13% | -2%
45: CCCCSc1nnc2n(CCc3ccccc3)c(=O)c3c4c(sc3n12)COC(C)(C)C4
 : 12% | -3%&-3%&-3% | 18% | -5% | 0% | -1.6% | -12% | -1%
46: CCOC(=O)C1=C(C)NC(=O)NC1c1ccco1 (stereo unspecified)
 : 0% | 11% | -12% | -5% | -9% | 2.1% | -8% | 7%
47: Cc1cccc(CC(=O)N2CCCC2)c1
 : · | · | · | 13% | -9% | · | 5% | -15%
48: COc1ccc(CCNc2ccncn2)cc1
 : -4% | 0% | 1% | -12% | -5% | -3.6% | -4% | ?
49: O=S(=O)(c1ccc(F)cc1)N1CCC(N2CCCCCC2)CC1
 : -4% | ? | -4% | -9% | -3% | 2.7% | 7% | 35%
50: O=C(CCc1ccccc1)OCC(=O)c1ccc(Br)cc1
 : -7% | 9% | 14% | -2% | -4% | -0.6% | 6% | -24%
51: O=C(Nc1ccc(F)cc1)c1c(O)c2c(n(Cc3ccccc3)c1=O)CCCC2
 : 3% | 3% | ? | 21% | -9% | -0.9% | 8% | -17%
52: CC(=O)Nc1c(Br)cc(N2C(=O)CCC2=O)cc1Br
 : 10% | 16% | 1% | 0% | -4% | 0.1% | 30% | 10%
53: COc1ccccc1N1CCN(C(=O)/C=C/c2ccc3c(c2)OCO3)CC1
 : 15% | 2% | -4% | -71% | 0% | -9.3% | -15% | ?
54: Cc1cc(Nc2ccc3c(c2)OCCO3)c2cc(Cl)ccc2n1
 : 9% | -26% | -12% | 9% | -14% | -6.7% | -8% | 40µM*
55: Cc1ccc(C(=O)NCC(c2cccs2)S(=O)(=O)c2ccccc2)cc1C (stereo unspecified)
 : -12%[46.1 µM] | · | -1% | · | · | -2.6% | · | -30%
56: C=CCOC(=O)COc1ccc2c(C)c(C)c(=O)oc2c1C
 : -10% | ? | -4% | -15% | 10% | -4.9% | -16% | 33%[activator]

Screening data: PubChem BioAssay, National Center for Advancing Translational Sciences (NCATS)
